Anaer choline gr: choline-fed anaerobic bacterial growth inhibition. Gram-negative bacterium anaerobic choline minimal medium, absorbance growth; stronger effect = lower value; many inactives read as strong as hits in the columns shown. calls only. actives 0.2% (n = 55,000). AID 1963822;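 active = growth z-score on choline under -2 at 7 or 20 h with little or no fall on glycerol, limits in tiers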;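 note: stock transfer was 300 nL into about 50 µL; the organism is E. coli; final concentration not given here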
Anaer choline gr early: second read-out of Anaer choline gr, no call of its own (marks repeat the call); z-score; measured here: choline growth z-score, timepoint 1;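 score of optical density at 7 h as mean of two plates; lower means less growth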
Active calls of the source: *; i = inactive; + = active, no number; & = joins results of further samples. Not all compounds are listed, so the mix of outcomes need not match the whole.

SMILES | Anaer choline gr | Anaer choline gr early
COCCCNC(=O)N1CCCn2nc(-c3ccc(C(F)(F)F)cc3)cc2C1 | i | 0.49
COc1ccc(NC(=O)C2CCN(C(=O)c3nnc(C(=O)Nc4ccc(F)cc4)s3)CC2)cc1 | i | -0.69
CCOC(=O)c1c(C)oc2nc(C)nc(NCC3CCCO3)c12 (stereo not given) | i | -2.4
Cc1nc2cccnc2n1-c1cc(C(=O)NCc2ccccc2F)ccc1Cl | i | 1.1
Cc1ccc(N2CC(C(=O)N3CCN(c4ccc(-c5noc(C)n5)cc4)CC3)CC2=O)cc1 (stereo not given) | i | 0.22
CC1CCCN(c2ccc(-c3csc(S(=O)(=O)N4CCCCC4)c3)nn2)C1 (stereo not given) | i | 0.77
Cc1noc(/C=C/c2ccc(S(=O)(=O)N3CCCCC3)s2)c1NC(=O)C1CC1 | i | -1.1
Cc1cccc(Cn2cccc2CNS(C)(=O)=O)c1 | i | -0.6
Cc1ccc(NC(=O)CSc2nc(-c3ccc(C(C)C)cc3)no2)cc1 | i | 1.6
CC1CCCN(CC2CCN(S(=O)(=O)Cc3c(F)cccc3Cl)CC2)C1 (stereo not given) | i | -0.76
Cc1noc(C)c1S(=O)(=O)Nc1c(-n2cnnc2)nn(C)c1C | i | 0.06
CS(=O)(=O)Nc1ccc(N2CCN(C3CCCCC3)CC2)c(C(=O)O)c1 | i | -0.23
O=C(Oc1cccc(Br)c1)c1cc(-c2ccccc2)on1 | i | 1.1
Cc1onc(-c2ccc(F)cc2F)c1C(=O)N1CCC(C)CC1 | i | -0.4
CCc1nnc(-c2coc(S(=O)(=O)N(CC)CC)c2)o1 | i | -0.98
O=C(CCC(=O)N1Cc2cccn2-c2ccccc21)NC1CCCc2ccccc21 (stereo not given) | i | -0.25
CC(C)=CCC[C@](C)(OC1OC(COC2OCC(O)C(O)C2O)C(O)C(O)C1O)C1CC[C@]2(C)[C@@H]1C(O)C[C@H]1[C@@]3(C)CCC(OC4OC(CO)C(O)C(O)C4O)C(C)(C)[C@@H]3CC[C@]12C (stereo not given in full) | i | 0.69
CN(CCCOc1ccc(Cc2ccccc2)cc1)CCC(=O)O | i | 0.15
COc1ccc(NC(=O)C2CCN(c3cc(C)c4cc(NC(C)=O)ccc4n3)CC2)cc1Cl | i | 1
Cc1cc(C)cc(N(CC(=O)N2CCC(C)CC2)S(=O)(=O)c2c(C)nn(C)c2C)c1 | i | -0.16
CCOC(=O)C1CCN(c2nnc(N3CCCCC3)c3ccccc23)CC1 | i | -0.57
Cc1ccc(C)c(CN2CCCC2c2c(C)noc2C)c1 (stereo not given) | i | -1.7
CN(CC1(C)CCOCC1)S(=O)(=O)c1cn(C)cn1 | i | -0.06
CC(=O)Nc1ccccc1-c1nnc(SCC(=O)Nc2ccc(Br)cc2)[nH]c1=O | i | -0.5
Cc1ccc(-c2nc3sc(CCNS(=O)(=O)c4ccc(Cl)cc4)c(C)n3n2)cc1 | i | 0.23

Following part
SMILES | Anaer choline gr | Anaer choline gr early
Fc1ccc(-c2nc(-c3ccc4nncn4c3)no2)cc1 | i | 0.48
O=c1[nH]c2cc3c(cc2c(=O)n1CCCc1nc(-c2ccccc2)no1)OCO3 | i | 0.62
O=C(CSc1nc(-c2ccccc2)nc2cc(=O)[nH]n12)N1CCc2ccccc21 | i | 1.5
CCOC(=O)c1cc(S(=O)(=O)N2CCN(c3ccccn3)CC2)[nH]n1 | i | -1.2
O=c1[nH]c2ccccc2c(=O)n1C1CCCCC1 | i | -0.37
O=C1Nc2ccccc2C1c1c(-c2ccccc2Cl)[nH]c2[nH]c(=O)[nH]c(=O)c12 (stereo not given) | i | -0.38
O=C(NCc1ccccc1)c1ccc2c(c1)N(Cc1cccc(F)c1)C(=O)c1ccccc1S2 | i | 0.49
O=S(=O)(Nc1ccc(F)cc1)c1cccnc1Nc1ccc(Br)cc1 | i | -0.96
O=S(=O)(c1ccc2c(c1)OCCO2)N1CCn2cccc2C1c1ccc(F)cc1 (stereo not given) | i | 1
O=S(=O)(c1cccc(Cl)c1)N1CC(OCc2ccccc2Cl)C1 | i | 0.15
OC1(c2ccccc2F)CCNCC1 | i | -0.81
Cn1c(C(=O)N(CCc2ccccc2)Cc2ccccc2)cc2c(=O)n3ccccc3nc21 | i | 0.34
CN1C(=O)C(C)(C)c2cc(S(=O)(=O)NCC(=O)NCC(=O)NC3CCCC3)ccc21 | i | -0.77
COc1ccc(CNC(=O)Cc2csc(NS(=O)(=O)c3ccc(Cl)cc3)n2)cc1 | i | -0.03
Cn1nc(C(=O)NCc2ccccc2)c2c1CCN(C(=O)c1ccc(F)cc1)C2 | i | -0.05
CN(Cc1ccccc1)C(=O)c1cccc(-c2ccc(S(=O)(=O)N3CCCCC3)cc2)c1 | i | 1.1
Cc1ccc(F)cc1NC(=O)CCc1nc(CSc2nc3ccccc3s2)no1 | i | -0.38
Cc1ccccc1S(=O)(=O)Nc1ccc2nncn2n1 | i | 1.3
COC(=O)c1cc2ccsc2n1CC(=O)NC1CCCC1 | i | 0.17
O=C(O)c1cc(N2CCN(CC(=O)N3CCCC3)CC2)ccc1NC(=O)C1CCC1 | i | 0.69
COC(=O)c1ccccc1NC(=O)c1cc2c(COC(C)=O)cnc(C)c2oc1=O | i | 0.48
COc1ccc(NC(=O)COc2nc(-c3ccc(OC)cc3)nc3sc4c(c23)CCCC4)cc1 | i | 0.08
COc1ccc(NC(=O)c2nnc(C(=O)N3CCC(C)CC3)s2)cc1 | i | -2
O=C(CSc1ccccc1)Nc1ccc2nc(SCC(=O)N3CCCC3)sc2c1 | i | 0.46
Cn1c(=O)c2c(ncn2CC(=O)O)n(C)c1=O | i | 0.41

Reformatted: 2 of the compounds above
Value order: Anaer choline gr | Anaer choline gr early
O=S(=O)(c1cccc(Cl)c1)N1CC(OCc2ccccc2Cl)C1
  i | 0.15
OC1(c2ccccc2F)CCNCC1
  i | -0.81

Additional results follow.
SMILES | Anaer choline gr | Anaer choline gr early
CCCCC(C)(O)C/C=C/[C@H]1[C@H](O)CC(=O)[C@@H]1CCCCCCC(=O)OC (stereo not given in full) | i | 0.5&0.53&0.08
CCC(C(=O)N1CCCC1)n1cnc2nc3c(cc2c1=O)CCCC3 (stereo not given) | i | -0.63
CCOc1ccc(CN2CCCC2c2c(C)noc2CC)cc1 (stereo not given) | i | -1.2
CCOc1ccc(N(Cc2nc3nc(C)cc(=O)n3[nH]2)S(C)(=O)=O)cc1 | i | -0.97
Cc1nn(-c2ccccc2)c2c1C(C(=O)NC1CCCC1)N(Cc1cccnc1)C(=O)CS2 (stereo not given) | i | -0.42
CCC(C)NC(=O)c1ccc(Cn2c(=O)c(C)nc3ccccc32)cc1 (stereo not given) | i | -0.68
CS(=O)(=O)Nc1ccc(-c2noc(CNC(=O)Cc3ccc(Cl)cc3)n2)cc1 | i | 0.21
O=S(=O)(c1ccccc1)N1CCC2(CC1)NCCN=C2NCc1ccc(F)cc1 | i | -0.36
CCOC(=O)CCNC(=O)N1CCCC1c1cc(C)on1 (stereo not given) | i | 0.83
CCOC(=O)c1cc(S(=O)(=O)N2CCCC2C(=O)Nc2ccc(NC(C)=O)cc2)cn1C (stereo not given) | i | -0.29
O=C1CC(c2ccccc2)Cc2[nH]c(=O)c(C(=O)Nc3nc4ccccc4s3)cc21 (stereo not given) | i | 0.37
COc1ccc2cc3c(N)nn(C(=O)c4ccc(F)cc4)c3nc2c1 | i | -0.99
Clc1ccccc1-n1ncc2c(N3CCCC3)ncnc21 | i | -0.16
CCOC(=O)c1cn(CC(=O)Nc2cccc(C)c2C)c2nc(C)ccc2c1=O | i | -0.57
COc1ccc(CCNC(=O)COc2ncnc3oc(C)c(C)c23)cc1OC | i | -0.3
CC1(C)S[C@@H]2C(NC(=O)Cc3ccccc3)C(=O)N2C1C(=O)O (stereo not given in full) | i | 0.12
O=C1CC(c2nc3ccccc3n2CC(O)COc2ccccc2Cl)CN1Cc1ccccc1 (stereo not given) | i | 0.21
O=c1[nH]c2ccc(NCC#Cc3ccccc3)cc2[nH]1 | i | -0.4
Cc1ccccc1NC(=O)C1CCN(c2ncnc3onc(C)c23)CC1 | i | 0.9
O=S(=O)(c1ccc(-c2nnc(C3CC3)o2)s1)N1CCCCC1 | i | -0.45
C=Cc1ccc(COC(=O)c2nnn(-c3ccc(OC)cc3)c2C)cc1 | i | -0.17
Cc1cc(C)n(C(=O)C2=C(c3ccccc3)c3ccccc3S(=O)(=O)N2C)n1 | i | 0.57
O=C(Nc1ccc(Cl)c(-c2nc3ncccc3o2)c1)c1ccc2c(c1)OCCO2 | i | -1.1
O=C(Nc1cc(F)cc(F)c1)C1CCCN(c2ccnc(-c3ccc(F)cc3)n2)C1 (stereo not given) | i | -0.33
Cc1cc2nc(COc3ccc(Cl)cc3NC(=O)C3CCCCC3)cc(=O)n2o1 | i | 0.72

Continued:
SMILES | Anaer choline gr | Anaer choline gr early
Cn1c(SCc2nc(-c3ccccc3Br)no2)nc2cc3c(cc2c1=O)OCO3 | i | 0.14
CCOCCCNC(=O)c1cc(Nc2ccccc2)nc2ccccc12 | i | 0.57
CN(C)c1nc2ncnc(SCC(=O)Nc3ccc(F)cc3)c2s1 | i | 0.13
CCCCN1CCn2c(nc3cc(NS(=O)(=O)c4ccc(Cl)cc4)ccc32)C1 | i | 0.26
CCc1cc(=O)n2[nH]c(NCc3ccc(F)cc3)nc2n1 | i | 0.41
CC(=O)N1c2ccc(S(=O)(=O)N3CCCC3C(=O)Nc3cccc(C)n3)cc2CC1C (stereo not given) | i | 0.83
Cc1ccc(-c2ccc(N3CCCC(C(=O)NCCN4CCC(C)CC4)C3)nn2)cc1 (stereo not given) | i | -0.12
CC1CCN(S(=O)(=O)N2CCCC(C(=O)NCCN3CCCCC3)C2)CC1 (stereo not given) | i | -0.11
Cc1cc(CNC(=O)NC2CCCCC2)c(C)n1-c1ccc(Cl)cc1 | i | -1.1
Cc1oc(C2CCN(C(=O)C3CCCO3)CC2)nc1C(=O)N1CCSCC1 (stereo not given) | i | -1.4
Cc1cc(=O)n2c(n1)NC(=NCc1ccccc1)NC2c1cccnc1 (stereo not given) | i | 0.31
Cc1cc(NC(=O)CN2C(=O)CCc3ccccc32)c2ccccc2n1 | i | 0.01
Cc1cc(C2CCCN2Cc2cc(Cl)ccc2O)no1 (stereo not given) | i | -1.7
O=C(C1CCCC1)N1CCN(c2nc3cccnc3s2)CC1 | i | -1
COc1ccc(Cc2c(C)nn(-c3nc(C)c(C(=O)NC(C)C)s3)c2C)cc1 | i | 0.15
Cc1cc(N2C(=O)CCS2(=O)=O)cc(C)c1S(=O)(=O)NC1CCCC1 | i | -1.6
COc1ccc(C2Nc3ccccc3-n3cc4c(=O)n(C)c(=O)n(C)c4c32)c(OC)c1 (stereo not given) | + | -0.47*
Cc1cc(C2CCCN2C(=O)C2CCCC2)no1 (stereo not given) | i | -0.38
Cn1cc2c3c(cccc31)CN(C(=O)NCC1CCCO1)CC2 (stereo not given) | i | 0.68
O=C(Nc1ccc(Br)cc1F)NC1CCN(c2ccc(F)cc2)C1=O (stereo not given) | i | 0.98
CC(=O)Nc1ccc(-c2noc(C3CCCN(C(=O)c4cncc(Br)c4)C3)n2)cc1 (stereo not given) | i | 0.37
CCn1c(=O)c(SCC(=O)NCc2ccccn2)nc2ccccc21 | i | -1
Cn1cnc2c(C(=O)N3CCN(c4ncccn4)CC3)nn(-c3ccc(Cl)cc3)c2c1=O | i | 0.03
Cn1c(=O)n(-c2ccc(F)cc2)c2nc(-c3cc(Br)ccc3F)nc(C(N)=O)c21 | i | 0.43
Cc1ccc(NS(=O)(=O)c2ccc3oc(=O)c4ncn(C)c4c3c2)cc1C | i | 0.55

Quoted from the results shown (18 entries):
SMILES | Anaer choline gr | Anaer choline gr early
Cn1c(SCc2nc(-c3ccccc3Br)no2)nc2cc3c(cc2c1=O)OCO3 | i | 0.14
CCOCCCNC(=O)c1cc(Nc2ccccc2)nc2ccccc12 | i | 0.57
CN(C)c1nc2ncnc(SCC(=O)Nc3ccc(F)cc3)c2s1 | i | 0.13
CCCCN1CCn2c(nc3cc(NS(=O)(=O)c4ccc(Cl)cc4)ccc32)C1 | i | 0.26
CCc1cc(=O)n2[nH]c(NCc3ccc(F)cc3)nc2n1 | i | 0.41
CC(=O)N1c2ccc(S(=O)(=O)N3CCCC3C(=O)Nc3cccc(C)n3)cc2CC1C (stereo not given) | i | 0.83
Cc1ccc(-c2ccc(N3CCCC(C(=O)NCCN4CCC(C)CC4)C3)nn2)cc1 (stereo not given) | i | -0.12
CC1CCN(S(=O)(=O)N2CCCC(C(=O)NCCN3CCCCC3)C2)CC1 (stereo not given) | i | -0.11
Cc1cc(CNC(=O)NC2CCCCC2)c(C)n1-c1ccc(Cl)cc1 | i | -1.1
Cc1oc(C2CCN(C(=O)C3CCCO3)CC2)nc1C(=O)N1CCSCC1 (stereo not given) | i | -1.4
Cc1cc(=O)n2c(n1)NC(=NCc1ccccc1)NC2c1cccnc1 (stereo not given) | i | 0.31
Cc1cc(NC(=O)CN2C(=O)CCc3ccccc32)c2ccccc2n1 | i | 0.01
Cc1cc(C2CCCN2Cc2cc(Cl)ccc2O)no1 (stereo not given) | i | -1.7
O=C(C1CCCC1)N1CCN(c2nc3cccnc3s2)CC1 | i | -1
COc1ccc(Cc2c(C)nn(-c3nc(C)c(C(=O)NC(C)C)s3)c2C)cc1 | i | 0.15
Cc1cc(N2C(=O)CCS2(=O)=O)cc(C)c1S(=O)(=O)NC1CCCC1 | i | -1.6
COc1ccc(C2Nc3ccccc3-n3cc4c(=O)n(C)c(=O)n(C)c4c32)c(OC)c1 (stereo not given) | + | -0.47*
Cc1cc(C2CCCN2C(=O)C2CCCC2)no1 (stereo not given) | i | -0.38

Continuation.
SMILES | Anaer choline gr | Anaer choline gr early
O=C(Cc1ccc(Cl)cc1)NCc1nc(-c2ccc3c(c2)nnn3C2CCCC2)no1 | i | 1.9
CCCSc1nc2c(cnn2-c2ccc(F)cc2)c(=O)[nH]1 | i | -0.84
CCc1nnc(C(=O)Nc2cccc(C(=O)N3CCN(c4ccccn4)CC3)c2)s1 | i | 0.17
Cc1cn2c(=O)cc(COc3ccccc3NC(=O)C(C)(C)C)nc2s1 | i | 0.36
CCSc1nccn2nc(-c3ccc(C)c(C)c3)cc12 | i | 2.6
CCN1CCCC1CNC(=O)c1cc2cc(S(=O)(=O)N(CC)CC)ccc2n1C (stereo not given) | i | 0.59

Assay outcomes as filed in PubChem.
